PINK1 modulator: A Quantitative High throughput Screen to Identify Chemical Modulators of PINK1 Expression; PINK1 immunofluorescence, high-content cytometry, 24 h; Potency, µM (highest dose often 76.6 µM), for the others: at the top dose activation (PINK1 increase), usual class: activators; actives 0.2% (n = 410,000); AID 624263, 2012; active = well fitted activation curve with a large enough effect; inconclusive = small, poorly fitted or top-dose-only effect; inactive = flat fitted curve, though single readings scatter; cell line not stated here;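 note: % of control where 0% means no effect; nearly all actives have a fitted effect of over 65% in size; a mitochondrial uncoupler was the plate control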
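Stable cell line, 250 cells/well, 12 h attachment; compounds pinned at 5 concentrations, 24 h; CCCP control. Fixed with nuclear dye, primary antibodies 12 h at 10 degrees C, secondary plus cell stain; laser-scanning cytometer read.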
The depositor's hits bear a star; ? = inconclusive. Potency is the fitted concentration of half-maximal effect. Only part of the results is shown; rates above refer to the full screens.

SMILES	PINK1 modulator
CCC1(C2CCN(Cc3cccc(Cl)c3)CC2)NC(=O)N(CC2COc3ccccc3O2)C1=O (stereo not given)	1.2%
O=c1c(-c2ccc(Cl)cc2)nc2cnc(N3CCOCC3)nc2n1C[C@H]1CCCO1	1.2%
CN(Cc1ccco1)c1nc(-c2ccccc2Cl)nc2ccccc12	1.6%
COc1ccc(C(=O)N2CCC3(CCCN(C(=O)NC(C)C)C3)CC2)cc1	0.9%
N#CCCn1c(=O)c(-c2ccc(Cl)cc2)nc2cnc(Nc3ccccc3)nc21	?
COc1ccc(CNc2nc(-c3cccc(NS(C)(=O)=O)c3)nc3ccccc23)c(OC)c1	0.4%
Cn1cccc1C(=O)N1CCC[C@@]2(CCN(c3cccc(-c4ccccc4)c3)C2)C1	1.5%
O=C(NCCN1CCOCC1)c1cnn(-c2nccc(-c3cc4ccccc4o3)n2)c1C1CC1	4.9%
O=C(NCCc1nnc2n1CCN(Cc1ccc(F)c(F)c1)CC2)c1ccoc1	1.7%
O=C(c1csnn1)N1CCC2(CC1)CN(c1ccncc1)C2	1.0%

A draw from above in order of heavy-atom count, smallest number first.
SMILES	PINK1 modulator
O=C(c1csnn1)N1CCC2(CC1)CN(c1ccncc1)C2	1.0%
CN(Cc1ccco1)c1nc(-c2ccccc2Cl)nc2ccccc12	1.6%
COc1ccc(C(=O)N2CCC3(CCCN(C(=O)NC(C)C)C3)CC2)cc1	0.9%
N#CCCn1c(=O)c(-c2ccc(Cl)cc2)nc2cnc(Nc3ccccc3)nc21	?
Cn1cccc1C(=O)N1CCC[C@@]2(CCN(c3cccc(-c4ccccc4)c3)C2)C1	1.5%
COc1ccc(CNc2nc(-c3cccc(NS(C)(=O)=O)c3)nc3ccccc23)c(OC)c1	0.4%
CCC1(C2CCN(Cc3cccc(Cl)c3)CC2)NC(=O)N(CC2COc3ccccc3O2)C1=O (stereo not given)	1.2%

The listing picks up, repeating the 2 entries before the break.
SMILES	PINK1 modulator
O=C(NCCc1nnc2n1CCN(Cc1ccc(F)c(F)c1)CC2)c1ccoc1	1.7%
O=C(c1csnn1)N1CCC2(CC1)CN(c1ccncc1)C2	1.0%
Clc1ccccc1-c1nc(NCc2cccnc2)c2ccccc2n1	0.7%
CN(C)c1ncc2nc(-c3ccc(Cl)cc3)c(=O)n(C3CC3)c2n1	2.3%
Cn1cc(CN2CCOc3ccc(C(O)C4CCCCC4)cc3C2)cn1 (stereo not given)	0.0%
O=c1c(-c2ccccc2)nc2cnc(N3CCOCC3)nc2n1C[C@H]1CCCO1	0.5%
Cc1cnc(-n2ncc(C(=O)NCCN3CCOCC3)c2-c2cccs2)nc1-c1ccc(F)cc1	-0.1%
Cc1ccc(CN2CCc3nnc(C(NC(=O)c4ccoc4)C(C)C)n3CC2)cc1C (stereo not given)	0.4%
CN(C)c1ncc2ncc(=O)n(C3CC3)c2n1	-1.0%
CN(Cc1ccco1)c1cc(-c2ccccc2Cl)ncn1	1.9%
CCNc1ncc2nc(-c3cccs3)c(=O)n(CCC#N)c2n1	2.7%
CC(=O)c1ccc(-c2cc(F)cc3c2OC(CNC(=O)Cc2cn4ccsc4n2)C3)s1 (stereo not given)	-0.2%
O=C(NCCN1Cc2ccccc2OC(c2ccsc2)C1)c1ccc2[nH]ccc2c1 (stereo not given)	-0.7%
COc1ccccc1CNc1ccnc(-c2ccccc2OC)n1	1.6%
Cc1noc(C)c1C(=O)N1CCC[C@@]2(CCN(Cc3nccs3)C2)C1	0.3%
c1csc(CNc2nc(-c3ccc4c(c3)OCO4)nc3ccccc23)c1	0.3%
CC(=O)N1CCN(c2ccc(NCc3ccco3)cc2)CC1	-0.8%
COc1cc(=O)n2c(c1C(=O)NC(C)c1ccco1)CCN(C(=O)c1cc(C)cc(C)c1)CC2 (stereo not given)	1.2%
Cc1nc2cnc(Oc3cccc(Cl)c3)nc2n(C[C@H]2CCCO2)c1=O	-0.4%
c1cncc(-c2ccc3ncnc(N4CCNCC4)c3c2)c1	0.8%
CCn1c(-c2ccccc2F)nc2cc(NC(C)=O)cc(C(=O)N(C)Cc3ccc4nccnc4c3)c21	-0.6%
CC(=O)N1CCC[C@@]2(CCN(c3ncccn3)C2)C1	-0.4%

Sorted by the number under PINK1 modulator (ascending): three from the list above
SMILES	PINK1 modulator
CC(=O)N1CCN(c2ccc(NCc3ccco3)cc2)CC1	-0.8%
O=C(NCCN1Cc2ccccc2OC(c2ccsc2)C1)c1ccc2[nH]ccc2c1 (stereo not given)	-0.7%
COc1cc(=O)n2c(c1C(=O)NC(C)c1ccco1)CCN(C(=O)c1cc(C)cc(C)c1)CC2 (stereo not given)	1.2%

(more compounds)
SMILES	PINK1 modulator
O=C(O)c1ccc(O)c2ncccc12	4.6%
CC(=O)OC1CC(O)C(C)(C)C2CC(OC(C)=O)[C@]3(C)C(CC[C@@]4(C)C(c5ccoc5)OC(=O)C5OC534)[C@]12C (stereo not given in full)	1.5%
Cn1c(=O)cnc2cnc(Oc3ccccc3)nc21	0.1%
Cn1nnnc1Sc1ncnc2scc(-c3cccs3)c12	-0.1%
O=C(c1cnccn1)N1CCC2(CCCN(C(c3ccccc3)c3ccccc3)C2)CC1	-0.1%
O=C(c1cccc(F)c1)N1CCC2(CC1)CCN(C(c1ccccc1)c1ccccc1)CC2	2.5%
COc1ccc(Oc2ncc3nc(-c4ccccc4)c(=O)n(Cc4cccs4)c3n2)cc1	0.5%
COc1ccccc1CNc1ncnc2ccc(-c3cccnc3)cc12	0.7%
CCn1nc(C)c(CN2Cc3ccccc3OC(c3ccccc3OC)C2)c1C (stereo not given)	-0.5%
CN(C)C(=O)c1ccc(-c2cncnc2Nc2ccc(F)cc2)cc1	-0.4%
CC(C)c1ccc2c(c1)CCC1C(C)(C(N)=O)CCCC21C (stereo not given)	3.5%
Cc1cccc2cc(CN(C(=O)c3ccc(N4CCCCC4)cc3)C3CC3)c(N3CCC(O)CC3)nc12	0.3%
Cc1cnc(CNc2nc(-c3ccoc3)nc3ccccc23)cn1	-0.6%
O=c1c(-c2cc(F)cc(F)c2)nc2cnc(N3CCNCC3)nc2n1-c1ccccc1	7.3%
COc1ccc(-n2c(=O)c(C)nc3cnc(N4CCNCC4)nc32)cc1	1.4%
Cc1ccc(C(=O)NCCc2nnc3n2CCN(Cc2ccnc4ccccc24)CC3)c(C)c1	-1.2%
OC(c1ccc2c(c1)CN(Cc1cccc3nccnc13)CCO2)C1CCCCC1 (stereo not given)	-0.6%
Cc1nc(SCc2nc3c(O)cccc3[nH]2)c2oc3ccccc3c2n1	?
O=C(c1cc(C(F)(F)F)cc(C(F)(F)F)c1)N1CCC2(CC1)CN(c1ccccn1)C2	9.1%
CS(=O)(=O)N1CCC2(CC1)CN(c1ccncc1)C2	-0.7%
CCC(CCC(C)C1CCC2C3CC=C4CC(O)CC[C@@]4(C)C3CC[C@@]12C)C(C)C (stereo not given in full)	-0.4%
O=C(c1cnccn1)N1CCC[C@@]2(CCN(c3ccccn3)C2)C1	-0.5%
CSc1ccc(-c2ccc3c(c2)CC(CNC(=O)Cn2nc(C)nc2C)O3)cc1 (stereo not given)	0.2%
COc1ccc(CN2CCOc3c(cc(-c4ncc(C(F)(F)F)cc4Cl)cc3OCC3CCCO3)C2)c(O)c1 (stereo not given)	0.6%
CN(C)c1ccc(-c2cc(Nc3ccc(F)cc3)ncn2)cc1	1.6%
Cc1cnc(CNc2cc(-c3cccnc3)ncn2)cn1	0.6%
COc1ccc(-c2ccncc2)cc1OC	-0.6%
Cc1nc(CN(C)c2ncnc3ccc(-c4ccc5c(c4)OCO5)cc23)cs1	1.6%
COc1ccc2[nH]cc(CCNc3cc(-c4cccnc4)ncn3)c2c1	-0.6%
COc1cc(CN2CCC3(CCC(CNC(=O)c4ccco4)O3)CC2)cc(OC)c1 (stereo not given)	0.5%
O=c1c(-c2ccc(F)c(F)c2)nc2cncnc2n1Cc1ccccc1Cl	2.6%
COC(=O)C1CCN(Cc2ccc3c(c2)CN(C(=O)C(C)N2CCOCC2)CCO3)CC1 (stereo not given)	1.4%
CC1CN(CC(=O)NCCC2COc3ccccc3O2)Cc2cc(Cl)ccc2O1 (stereo not given)	0.4%
CSC(N)=NCCCC(N)C(=O)O (stereo not given)	-1.9%
Cc1nc(C(=O)N(Cc2cc3ccc(F)cc3nc2N2CCC(O)CC2)CC2CCCO2)cs1 (stereo not given)	0.6%
COc1cccc(-c2ccc3ncnc(NC4CC4)c3c2)c1	3.3%
CC(=O)N1CCC2(CCCN(C(c3ccccc3)c3ccccc3)C2)CC1	0.1%
CS(=O)(=O)c1ccc(-c2cccc3c2OC(CNC(=O)c2ccnc(Cl)c2)C3)cc1 (stereo not given)	-1.0%
COCCNc1nc(-c2cccc(NS(C)(=O)=O)c2)nc2ccccc12	-0.5%
CC(C)NC(=O)[C@@H]1C[C@@H](Sc2nc3ccccc3[nH]2)CN1C1Cc2ccccc2C1	-0.7%
COC(=O)C1CCN(Cc2ccc3c(c2)CN(C(=O)c2ccc(-n4cnnn4)cc2)CCO3)CC1	-0.1%
Cc1ncc(-c2ccc(F)cc2)c(C2CCCN(Cc3cccc(O)c3)C2)n1 (stereo not given)	0.9%
COc1cc(=O)n2c(c1C(=O)N1CCc3ccccc3C1)CCN(Cc1ccc(CO)o1)CC2	-0.2%
CN1CCN(c2nc(-c3ccccc3C(F)(F)F)nc3ccccc23)CC1	1.4%
COc1ccc(NC(=O)N2CCCC3(CCN(S(=O)(=O)c4ccccc4)CC3)C2)cc1	-0.4%
COCC(=O)Nc1cc(C(=O)N2CCc3c([nH]c4ccccc34)C2)cc2nc(-c3ccccc3)n(C)c12	0.6%
CNc1nc(-c2ccc(C(=O)N(C)C)cc2)nc2ccccc12	-0.9%
Cc1ccc(C)c(CN2CCC3(CCC(CNC(=O)c4ccnn4C)O3)CC2)c1 (stereo not given)	1.4%
COc1ccc(C(=O)N2CCC3(CCCN(Cc4ccccc4)C3)CC2)cc1	0.2%
CS(=O)(=O)Nc1cccc(-c2cc(NCc3ccccc3)ncn2)c1	0.3%
Continued.
SMILES	PINK1 modulator
Cc1ccc(CNc2ccc(N3CCN(C)CC3=O)cc2)cc1	-0.4%
O=C(c1n[nH]c2c1CCCC2)N1CCOc2ccc(C(O)C(c3ccccc3)c3ccccc3)cc2C1 (stereo not given)	0.3%
O=C(c1csnn1)N1CCC2(CCCN(Cc3ccccc3)C2)CC1	-1.1%
COc1ccc(-n2c(=O)c(C)nc3cnc(Nc4cccc(OC)c4)nc32)cc1	2.2%
COc1ccc(-c2nc3cnc(N4CCNCC4)nc3n(CCC#N)c2=O)cc1	-0.3%
O=S(=O)(c1ccccc1)N1CCC2(CCCN(Cc3cc(C(F)(F)F)cc(C(F)(F)F)c3)C2)CC1	1.3%
COCC1CCCN(Cc2ccc3c(c2)CN(C(=O)c2ccc(-n4cccn4)cc2)CCO3)C1 (stereo not given)	-0.2%
COc1ccc(NC(=O)N2CC[C@@]3(CCCN(C(=O)c4ccncc4)C3)C2)cc1	1.1%
O=C(NCC1(N2CCOCC2)CCCC1)c1cnn(-c2ncc3c(n2)-c2ccccc2CC3)c1C1CC1	0.5%
COc1ccc(CCNC(=O)c2cnn(-c3nccc(-c4ccco4)n3)c2C)cc1	-1.0%
COc1ccccc1CN1CCCC2(CCN(C(=O)c3ccncc3)CC2)C1	1.2%
COc1cc(=O)n2c(c1C(=O)NC(C)c1ccco1)CCN(C(=O)c1ccc3c(c1)OCCO3)CC2 (stereo not given)	-0.4%
O=C(c1ccco1)N1CCC2(CC1)CCN(c1ccc(-c3ccccc3)cc1)CC2	-1.2%
N#Cc1cccc(NC(=O)N2CC[C@@]3(CCCN(C(=O)c4ccco4)C3)C2)c1	-0.2%
COc1ccc(O)c(CN2CCC3(CCC(CNC(=O)c4ccco4)O3)CC2)c1 (stereo not given)	0.0%
O=C(Nc1cccc(F)c1)N1CC2(CCN(C(=O)c3ccncc3)CC2)C1	4.0%
COc1ccc(NC(=O)N2CC[C@@]3(CCCN(C(=O)c4cnccn4)C3)C2)cc1	-0.4%
CC(=O)N1CCC2(CC1)CN(c1ccccc1)C2	4.0%
CC(=O)NCCNc1nc(-c2cccc(C#N)c2)nc2ccccc12	-1.3%
CN1CCN(c2ncc3nc(-c4ccc(Cl)cc4)c(=O)n(C)c3n2)CC1	0.8%
O=C(c1csnn1)N1CCC[C@@]2(CCN(C(c3ccccc3)c3ccccc3)C2)C1	0.1%
COC(=O)[C@@H]1CCCN1Cc1ccc2c(c1)CN(Cc1ccccc1)CCO2	-0.1%
COc1cccc(CN2CCC3(CCC(CNC(=O)c4ccco4)O3)CC2)c1OC (stereo not given)	-0.8%
COc1cc(CN2CCc3nnc(C(NS(C)(=O)=O)C(C)C)n3CC2)ccc1F (stereo not given)	0.0%
O=C(c1nc2ncccn2n1)N1CCOc2ccc(C(O)C(c3ccccc3)c3ccccc3)cc2C1 (stereo not given)	-0.3%
CCC1CN(CCC(=O)N2CCN(c3ncccn3)CC2)Cc2cc(OC)ccc2O1 (stereo not given)	-0.1%
O=C(NCc1nnc2n1CCN(Cc1cccc(C(F)(F)F)c1)CC2)c1ccncc1	-0.2%
Clc1ccccc1-c1nc(NCc2cccs2)c2ccccc2n1	0.3%
OCCNc1nc(Nc2ccccc2OC(F)(F)F)nc(N2CCCC2)n1	4.9%
CCCCC1CN(CCNC(=O)c2ccccn2)Cc2ccccc2O1 (stereo not given)	-0.4%
Cc1oc(-c2ccccc2NC(=O)c2ccccn2)nc1CNC(=O)c1cccc(C#CC(C)(C)O)c1	-1.3%
O=C(NCCc1ccncc1)c1cnn(-c2ncc3c(n2)-c2ccccc2CCC3)c1C1CC1	0.4%
